Six1-Eya2 blk = qHTS Assay for Inhibitors of the Six1/Eya2 Interaction | Homeobox protein SIX1 (Homo sapiens) + Protein phosphatase EYA2 (Homo sapiens), … | AlphaScreen GST-Six1/His-Eya2 binding, biochemical; stronger effect = lower value; control for the full effect not named in the record | activity change, % (test concentration not listed) | 360,000 tested, 0.56% active; in the data active = activity change below about -65%; inconclusive = about -30% to -65%; inactive = above about -30%; further: on the % scale 0 is the no-effect control and ±100 the full control effect; compound concentration not given in the record
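AlphaScreen with GST-Six1 and His-Eya2 (5X mix: 250 nM and 500 nM), glutathione donor and nickel acceptor beads; buffer 50 mM Tris pH 8.0, 300 mM NaCl, 1 mM TCEP; 1 h at 37 C in the dark.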
TRPML1 ag = qHTS for Agonists of the Human Mucolipin Transient Receptor Potential 1 (TRPML1); activation, % (no concentration beside the values); AID 624414, 2012; TRPML1-expressing cells, Ca2+ dye fluorescence, FDSS; host cell line not named in the record; reference of the full effect not given here; Mucolipin-1 (Homo sapiens), Q9GZU1; 410,000 tested, 0.12% active; in the data active = activation above about 50%; inconclusive = about 30% to 50%; inactive = below about 30%; further: 0% is about no effect; the text of the record puts the active cut at 80%
Target sequence (Q9GZU1 whole entry, looked up): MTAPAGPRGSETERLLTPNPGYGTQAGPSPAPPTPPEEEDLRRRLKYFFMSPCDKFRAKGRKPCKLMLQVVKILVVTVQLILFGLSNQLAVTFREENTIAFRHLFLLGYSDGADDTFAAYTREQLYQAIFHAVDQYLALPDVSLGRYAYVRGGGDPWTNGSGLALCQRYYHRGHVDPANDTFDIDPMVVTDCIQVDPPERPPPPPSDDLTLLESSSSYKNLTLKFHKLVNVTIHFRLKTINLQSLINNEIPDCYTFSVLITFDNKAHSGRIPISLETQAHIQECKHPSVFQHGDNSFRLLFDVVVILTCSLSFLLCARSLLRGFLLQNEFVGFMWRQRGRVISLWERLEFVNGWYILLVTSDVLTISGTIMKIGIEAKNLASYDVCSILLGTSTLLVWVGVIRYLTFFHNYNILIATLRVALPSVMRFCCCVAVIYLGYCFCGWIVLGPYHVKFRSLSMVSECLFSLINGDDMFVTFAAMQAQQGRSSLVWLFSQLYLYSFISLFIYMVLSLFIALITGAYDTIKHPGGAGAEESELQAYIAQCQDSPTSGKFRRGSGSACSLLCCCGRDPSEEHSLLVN
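Kinetic FDSS Ca2+ read in Tet-induced TRPML1-DL cells (ABD Ca8 dye plus quencher, 45-90 min RT loading): baseline, then compound, then 110 s agonist window; EC80 agonist 54-4 at 4uM final added afterwards for a 110 s antagonist window.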
TRPML1 blocker = qHTS for Inhibitors of the Human Mucolipin Transient Receptor Potential 1 (TRPML1); AID 624415, 2012; activity change, negative = inhibition, % (no concentration beside the values); Mucolipin-1 (Homo sapiens), Q9GZU1; TRPML1-inducible cells, Ca2+ dye fluorescence, FDSS; stronger effect = lower value; inhibition of EC80 agonist-evoked calcium signal; 390,000 tested, 0.02% active; in the data active means activity change below about -50%; inconclusive means about -30% to -50%; inactive means above about -30%;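 further: stimulus is agonist 54-4 at its EC80 concentration; on the % scale 0 is the no-effect control and ±100 the full control effect; compound concentration not given in the record; the text of the record puts the active cut at -80%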
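Calcium fluorescence in TRPML1-DL cells induced overnight with Tet: a 110 s read after compound pin addition, then a 110 s antagonist read after challenge with 54-4 at 4 uM final (EC80).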
D2 ag = Beta-Arrestin HTS for Positive Allosteric Modulators of the Human D2 Dopamine Receptor: Agonists. D(2) dopamine receptor (Homo sapiens), P14416. activation, % (test concentration not listed). 360,000 tested, 0.084% active. DiscoveRx PathHunter D2 beta-arrestin, luminescence, 90 min; 100% = 57 uM dopamine signal; in the data active = activation above about 40%; inconclusive = about 15% to 40%; inactive = below about 15%; further: compound concentration not given in the record; the text of the record calls up to 30% inactive
Target sequence (P14416 whole entry, looked up): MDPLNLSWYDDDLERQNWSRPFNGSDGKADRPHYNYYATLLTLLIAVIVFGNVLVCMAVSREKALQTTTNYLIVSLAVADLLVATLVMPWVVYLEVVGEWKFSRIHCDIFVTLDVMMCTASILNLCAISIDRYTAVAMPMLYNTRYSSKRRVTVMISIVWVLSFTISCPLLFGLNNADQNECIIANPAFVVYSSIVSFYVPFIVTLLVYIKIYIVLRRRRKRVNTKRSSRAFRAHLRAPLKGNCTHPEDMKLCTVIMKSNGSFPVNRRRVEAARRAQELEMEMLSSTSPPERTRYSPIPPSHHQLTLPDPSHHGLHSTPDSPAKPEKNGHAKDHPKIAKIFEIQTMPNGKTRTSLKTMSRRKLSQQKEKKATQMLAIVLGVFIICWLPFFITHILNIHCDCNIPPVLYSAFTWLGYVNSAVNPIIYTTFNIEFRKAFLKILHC
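Agonist mode: compounds alone added to overnight-plated D2 PathHunter cells for 90 min at 37 C, with 57 uM final dopamine (EC100) defining full response. Beta-arrestin recruitment detected by chemiluminescent reagent, read after 1 h at ambient temperature.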
CtBP-E1A inh = qHTS Assay for Inhibitors of the CtBP/E1A Interaction; AID 651724, 2012; AlphaScreen GST-E1A/His-CtBP binding, 1536-well; stronger effect = lower value; control for the full effect not named in the record; 340,000 tested, 0.49% active; activity change, % (test concentration not listed); in the data active means activity change below about -65%; inconclusive means about -30% to -65%; inactive means above about -30%; further: on the % scale 0 is the no-effect control and ±100 the full control effect; compound concentration not given in the record
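AlphaScreen with 125 nM GST-E1A and 125 nM His-CtBP (5X stocks) in Tris pH 8.0, 300 mM NaCl, BSA, Tween 20, TCEP. Compounds preincubated 2 h at 37 deg C, then glutathione donor/nickel acceptor beads added for 1 h at 37 deg C in dark.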
PINK1 expr mod = A Quantitative High throughput Screen to Identify Chemical Modulators of PINK1 Expression. PINK1 immunofluorescence, high-content cytometry, 24 h. Potency, µM (series often up to 76.6 µM), for inactives: top-dose activation (PINK1 increase), actives largely listed as activators. 410,000 tested, 0.2% active. AID 624263, 2012; active = well fitted activation curve with a large enough effect; inconclusive = small, poorly fitted or top-dose-only effect; inactive = flat fitted curve, though single readings scatter; cell line not stated here;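 further: potency means the concentration at half of the fitted maximal effect; % of control where 0% means no effect; nearly all actives have a fitted effect of over 65% in size; a mitochondrial uncoupler was the plate control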
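Measures PINK1 amount and localization on or inside mitochondria by immunofluorescence. Stable cells get compounds at 5 concentrations for 24 hours before fixation and staining; CCCP controls included.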
* = called active by the depositor; ? = inconclusive; · = not tested or not shown; [ ] = another dose, or the depositor's remark.

structure	TRPML1 ag	D2 ag	PINK1 expr mod	TRPML1 blocker	Six1-Eya2 blk	CtBP-E1A inh
COCc1c(CN)cnc(C)c1N	0.1	-3.6	·	12	-2	8
CC1(C)CC(=O)C2=C(C1)NC(=O)C21C(C(=O)OC(C)(C)C)=C(N)Oc2ccc(Br)cc21 (stereo not drawn)	-0.5	3.7	1.4%[38.3 µM]	2	5	10
Cc1nnc(NC(=O)c2cccn(Cc3cccc(Cl)c3)c2=O)s1	0.1	·	26%	17	·	·
CCCCCCCCCCCCn1ccc(=N)cc1	0.6	-2.8	-0.6%	25	12	0
Cc1oc(-c2ccccc2Cl)nc1CN1C(=O)CN=C(c2ccccc2)c2ccccc21	-1.4	-5.5	?	-4	-2	-1
N#Cc1c(/N=C/c2ccc(O)cc2O)sc2c1C1CCN2CC1	1.0	-0.5	1.6%	2	-14	-12
Cc1cccc(NC(=O)N2CCCC2)c1	0.1	-4.1	2.5%	-3	6	·
Cc1nc2ccc(Cl)cn2c1P(=S)(N1CCOCC1)N1CCOCC1	-0.5	-3.1	1.4%	12	-11	7
O=C(O)C1C(C(=O)O)C2(Cl)C(Cl)=C(Cl)C1(Cl)C2(Cl)Cl (stereo not drawn)	-0.6	0.6	1.3%	7	1	1
COc1cc(N2CCOCC2)ccc1/C=C1\C(=O)NC(=O)N(Cc2cccs2)C1=O	-0.6	5.5	2.6%	13	8	1
CC1COC2N=C(N[N+](=O)[O-])NC2O1 (stereo not drawn)	0.2	-2.7	1.4%	45	-1	7
C[C@]12CC[C@H]3[C@@H](CC[C@]4(O)C[C@@H](O)CC[C@]34C=O)[C@@]1(O)CC[C@@H]2C1=CC(=O)OC1	-0.5	-2.4	0.3%	11	1	2

Part of the list above, with values under each structure.
Every second line gives: TRPML1 ag | D2 ag | PINK1 expr mod | TRPML1 blocker | Six1-Eya2 blk | CtBP-E1A inh
- Cc1oc(-c2ccccc2Cl)nc1CN1C(=O)CN=C(c2ccccc2)c2ccccc21
  -1.4 | -5.5 | ? | -4 | -2 | -1
- N#Cc1c(/N=C/c2ccc(O)cc2O)sc2c1C1CCN2CC1
  1.0 | -0.5 | 1.6% | 2 | -14 | -12
- CC1COC2N=C(N[N+](=O)[O-])NC2O1 (stereo not drawn)
  0.2 | -2.7 | 1.4% | 45 | -1 | 7
- O=C(O)C1C(C(=O)O)C2(Cl)C(Cl)=C(Cl)C1(Cl)C2(Cl)Cl (stereo not drawn)
  -0.6 | 0.6 | 1.3% | 7 | 1 | 1

Following part
structure	TRPML1 ag	D2 ag	PINK1 expr mod	TRPML1 blocker	Six1-Eya2 blk	CtBP-E1A inh
Cc1nc2cc(-c3ccccc3)nn2c(C)c1CCC(=O)N1CCC2(CC1)OCCO2	0.9	-1.3	3.7%	-7	2	-13
COC(=O)C1=C(c2cccc3c2S(=O)(=O)c2ccccc2-3)C[C@@H]2CC[C@H]1N2C(=O)N1CCc2cc(OC)c(OC)cc2C1	0.4	11	-1.0%	-7	-8	-19
CCOC(=O)C(O)(c1ccc(NC(=O)NC2CCCCC2)cc1)C(F)(F)F (stereo not drawn)	1.5	-2.9	0.3%[38.3 µM]	-18	2	6
CN(Cc1ccccc1)C1CCCN(C(=O)COc2ccccc2Cl)C1 (stereo not drawn)	1.0	1.1	-0.9%	-11	-6	-3
CC[N+](CC)(CC#CCO)CC#Cc1ccccc1	0.3	4.5	-0.8%	-8	3	5
NC(=O)OCCCc1ccccc1	0.3	4.8	0.0%	-14	-1	7
COc1cccc(C2(O)CCSCC2CN(C)C)c1 (stereo not drawn)	0.5	-1.7	-0.9%	13	9	7
O=c1[nH]c(=O)n(-c2ccc(Br)cc2)c(O)c1C=NCCN1CCCCC1	0.3	-0.3	-0.7%	5	5	-19
Cc1ccccc1CN1C(=O)C(C)N=C(c2ccccc2)c2ccccc21 (stereo not drawn)	2.8	·	1.1%	-11	·	·
C=CCN1C(=O)NC(=O)/C(=C/C=C/c2ccccc2)C1=O	2.5	4.4	9.4%	6	-7	2
O=[N+]([O-])c1cc(F)c(N2CCCC2)cc1Br	1.1	5.0	-1.5%	6	-8	-5
Cc1cccc(-n2c(O)c(/C=C3/C(c4ccccc4)=Nc4ccccc43)c(=O)[nH]c2=O)c1	-0.3	-2.9	3.1%	5	5	11
CC(C)OP(=O)(OC(C)C)C(O)c1cccnc1 (stereo not drawn)	1.1	-1.2	-1.3%	39	3	-15
CC1CC2(C)C(CCC3C2CCC2(C)C(OP(=O)(N4CC4)N4CC4)CCC32)CC1=O (stereo not drawn)	-0.2	1.0	-2.8%	-13	3	-1
N#CC[N+]1(CCCNP2(=O)C=C(c3ccccc3)OC(c3ccccc3)=C2)CCOCC1	-0.4	-5.3	0.7%	12	2	-23
COc1cccc(CN2CCN(C(=O)COc3ccc4ccccc4c3)CC2)c1	1.0	-4.6	-0.6%	18	-15	-14
Cc1noc(C)c1CSCC(=O)Nc1ccc(C#N)c(Cl)c1	-0.1	3.7	2.1%	4	-4	0
O=C(COc1ccc(Cl)cc1)Nc1ccc(Cl)cc1C(=O)c1ccccc1	-0.5	·	-0.3%	-6	·	·
CC(C)(CN)CC(=O)O	0.2	-0.7	0.4%	77	18	·
CC(Cc1ccccc1Sc1ccccc1)N(C)C (stereo not drawn)	1.3	-1.7	-0.7%	19	-2	-2
Cc1ccc2c(c1)C(c1ccccc1)=NCC(=O)N2	0.6	2.2	4.4%	6	1	7
CC(=NCc1ccc2c(c1)OCO2)c1c(O)n(-c2ccc(C)cc2)c(=O)[nH]c1=O	-0.3	-1.4	9.2%	-8	3	-2
CCOc1cc2c(cc1OCC)-n1cccc1C(c1ccccc1F)NC2 (stereo not drawn)	2.1	-3.4	5.7%	17	-19	-23
O=C(O)C(Cl)(Cl)Cl	0.2	-3.8	-0.5%	1	4	1
COC(=O)C1C(O)C(C)C(O)C(C)/C=C\C=C(/C)C(=O)Nc2c(C)c(OC(C)=O)c3c(c2O)C(=O)C(C)=C2OCOC(=C23)/C(C)=C/C(C)(O)C(O)C(C)C1O (stereo not drawn)	2.1	?	-0.6%	5	-4	1
CCn1c(C)c(C(=O)NCCc2ccccc2)c2cc(OC)ccc21	0.0	-2.7	-0.1%	27	0	-1
CC(=O)Nc1cc(C(=O)N2CCC3(CC2)OCCO3)ccc1Sc1ccc(C)cc1	0.5	1.8	-1.0%[38.3 µM]	5	0	1
CN(C)CCCNCC(=O)Nc1ccc(Cl)cc1C(=O)c1ccccc1	0.2	-4.4	0.1%	16	-2	-6
CCOc1ccc(CN(CCc2ccc3c(c2)OCO3)Cc2cc(OC)ccc2O)cc1	0.6	·	-0.8%	-6	·	·
C[N+](C)(C)CC(=O)Nc1ccc(Cl)cc1C(=O)c1ccccc1	0.2	-0.8	1.6%	8	4	0
CCCCC(=O)N/N=C/c1c(O)n(CC)c(=S)n(CC)c1=O	7.3	-18	-1.1%	-8	-10	·
Cc1cc(S(=O)(=O)NC(C)C)ccc1OCC(=O)N1CCN(Cc2ccc3c(c2)OCO3)CC1	0.5	1.1	-1.8%[38.3 µM]	1	-8	-3
CCCCCCCn1c(=O)c(C(=O)Nc2cnccn2)c(O)c2ccccc21	-0.2	2.0	6.8%	-2	26	1
N=c1c[n+](C2CCCCC2)[n-]o1	1.2	2.2	0.7%	6	9	-10
C#CCCC[C@@H]1OC(=O)CNC(=O)C([C@@H](C)CC)NC(=O)[C@@H]2CCCN2C(=O)C([C@@H](C)CC)OC(=O)[C@H](Cc2ccccc2)N(C)C(=O)[C@H](C(C)C)NC(=O)C1(C)C (stereo partly drawn)	6.7	-6.5	2.4%	·	6	-21
O=c1[nH]c(O)c(C=NC2CCN(Cc3ccccc3)CC2)c(=O)[nH]1	0.7	-1.8	-1.6%	-1	8	1
Cc1cccc(CN2C(=O)CN=C(c3ccccc3Cl)c3cc(Cl)ccc32)c1	1.7	·	?	-14	·	·
CC(=O)OC1CCC2(C)C(=CC(=O)C3C2CCC2(C)C(OC(C)=O)CCC32)C1 (stereo not drawn)	0.9	-1.7	4.3%	-12	6	-17
COc1ccc(OC(=O)N(C)C[C@H]2OCc3cnnn3CCCC(=O)N([C@H](C)CO)C[C@H]2C)cc1	·	-0.3	0.5%	·	6	-23
COc1ccc(S(=O)(=O)Nc2ccccc2OC)cc1N=Nc1c(O)[nH]c(=S)[nH]c1=O	1.4	-0.2	?	-14	-26	-9
COc1ccc(-n2nc(C(=O)NCC(=O)N3CCC4(CC3)OCCO4)c3ccccc3c2=O)cc1	1.1	-1.8	0.6%	29	2	0
COCCNC(=S)N1Cc2ccccc2-n2nncc2C1	-0.5	-0.6	-0.1%	0	0	0
Clc1ccc(CNC2CN3CCC2CC3)cc1 (stereo not drawn)	-0.5	-3.9	-2.1%	15	0	-7
CN(c1ccc(O)cc1)c1ccc([N+](=O)[O-])c2nonc12	1.3	-7.5	0.6%	-3	-10	-5
COC(=O)C1=C(c2ccc(F)cc2F)C[C@@H]2CC[C@H]1N2C(=O)NC1CC1	0.2	-2.3	-0.3%	6	14	·
CCC(=NCc1ccco1)c1c(O)n(C)c(=O)n(C)c1=O	-0.1	-3.4	1.3%	-7	-3	·
CCCCC12CN3CC(C)(CN(C1)C3c1ccccn1)C2=O (stereo not drawn)	-0.5	·	-0.1%	12	·	·
O=P(N1CCCCC1)(N1CCCCC1)C(Cl)(Cl)Cl	0.0	-1.6	·	17	5	5
COC(=O)C1=C(c2ccc(S(C)(=O)=O)cc2)C[C@@H]2CC[C@H]1N2C(=O)NCc1ccco1	-0.1	-0.9	0.5%	15	5	5
O=C(NC(=O)N1CCC2(CC1)OCCO2)c1ccc(Cl)cc1	-0.1	-3.5	2.9%	-2	-7	-7
Cc1cccc(CN2CCN(Cc3ccc(Cl)cc3)CC2)c1	1.4	-3.9	4.6%	-15	-12	-4
CCC(=NCCCN1CCOCC1)c1c(O)n(Cc2ccccc2)c(=O)[nH]c1=O	0.0	-2.3	5.3%[38.3 µM]	-6	-3	3
CCOc1ccccc1-n1c(O)c(C=Nc2c(C)n(C)n(-c3ccccc3)c2=O)c(=O)[nH]c1=O	-0.2	-0.1	·	-9	3	5

Assay outcomes (PubChem)

Some of the compounds tested; the hit share may differ from the screen's.
